Screening data from PubChem BioAssay.
Sa RN4220 lethal = S. aureus RN4220 growth inhibition; OD600, 16 h; inhibition, % (no concentration beside the values); 0.33% of 330,000 active;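 active means z-score of -3 or lower and OD600 up to 0.18 on both plates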;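 further: plate controls were untreated cells for no effect and reference antibiotic for full effect; stock transfer was 100 nL into about 80 µL; one replicate is shown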
Bead autofluor = counter-screen for toxin protease inhibitors: compound fluorescence. compound autofluorescence counterscreen, microsphere flow cytometry; hits give high values. fluorescence intensity (test concentration not listed). 3.1% of 360,000 active. AID 624483;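 active means at least 3 SD above the mean of all compounds, about 16000 in these data; inconclusive means too few beads counted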;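 further: 100 nL of 1 mM stock went into each well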
BJeLR lethal = kills HRASV12-expressing BJeLR cells. BJeLR (HRASV12) viability, CellTiter-Glo ATP luminescence, 48 h; reference of the scale not given here. inhibition, % (test concentration not listed). 0.17% of 300,000 active;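 active means replicate mean above 50%; inconclusive means above 50% but judged a plate artefact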;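 further: 50 nL library stock added to about 25 µL; numbers are from one replicate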
PrP 5UTR inh = suppresses PrP 5' UTR mRNA reporter expression | inhibition, % (test concentration not listed) | cell-based PrP 5' UTR mRNA reporter, plate reader | 0.35% of 340,000 active;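 active means every replicate at 50% or more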;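 further: 0 = median of the neutral control wells; tested in H4 reporter cells; numbers are from one replicate; inactives centre near -14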
ugtP null kill = compounds lethal to S. aureus RN4220 ugtP deletion mutant. AID 1259309. OD600 growth, 16 h; some inactives read as strong as hits. 0.54% of 330,000 active. growth inhibition, % (no concentration beside the values);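 active means z-score under -3 and OD600 up to 0.15 on both plates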;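 further: plate controls were untreated wells for no effect and antibiotic for full effect; wells of about 80 µL received 100 nL stock; the first replicate is given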
Mtb hypoxia rep = reduces hypoxia-regulated biosensor signal in M. tuberculosis. M. tuberculosis hypoxia-regulated fluorescent reporter, fluorescence. fluorescence inhibition, % (test concentration not listed). 0.1% of 300,000 active. AID 1159583;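 active means 35 to 45% if threefold the growth effect, above 45% if 1.5-fold the growth effect; inactive means the rest, general growth blockers included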;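 further: wells of about 50 µL received 100 nL stock; 0% = vehicle wells and 100% = reference inhibitor wells; whole bacteria with a GFP reporter of the hypoxia response; strong numbers were not always called active; many hits fall short of the cut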
Mtb hypoxia rep growth = further read-out of Mtb hypoxia rep, marked with its call; growth inhibition, %; measured here: M. tuberculosis growth (absorbance);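 0% = vehicle and 100% = reference antibiotic; read after six days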
Starred values were filed as active, the others as inactive; ? = inconclusive; · = no result given.

SMILES | Sa RN4220 lethal | Bead autofluor | BJeLR lethal | PrP 5UTR inh | ugtP null kill | Mtb hypoxia rep | Mtb hypoxia rep growth
COc1ccc(C2C(C(=O)OC(C)(C)C)N3N=Cc4ccccc4C3C23C(=O)c2ccccc2C3=O)c(OC)c1 (stereo not given) | 7.2 | · | · | · | -16 | 1 | 3
C=CCN1C(=O)c2ccc(C(=O)NCCOc3ccccc3F)cc2C1=O | 1.6 | ? | 4 | -32 | 8 | 7 | 11
CCCCc1c(O)nc2sc3cc(OC)ccc3n2c1=O | 6.3 | 3768 | 4 | -14 | -6 | · | ·
CC(=O)N1CCN(CC(O)COc2ccc(S(=O)(=O)N3CCOCC3)cc2)CC1 (stereo not given) | 1.4 | 8712 | · | -5 | 2 | -6 | 7
C=CCON/C(CCC)=C1\C(=O)CC(C)(C)CC1=NC | 1.6 | 5842 | 1 | -23 | 3 | 4 | 5
Cc1cc(C)n(CCNS(=O)(=O)c2ccc(Cl)cc2)n1 | 2.5 | 4452 | -2 | 1 | 9 | 11 | 8
CC(C(=O)Nc1nccs1)N1C(=O)C2CC=CCC2C1=O (stereo not given) | 1.1 | 3308 | 5 | -26 | 6 | 8 | 5
O=C(/C=C/c1cccs1)NC1CC1 | 2.2 | 4059 | 4 | -24 | 1 | 2 | 16
NNC(=O)c1csc(-c2cccc(C(F)(F)F)c2)n1 | -0.1 | 3796 | 6 | 1 | 4 | 12 | 14
C=CCN(CC(O)c1cccc([N+](=O)[O-])c1)C(C)CCc1ccccc1 (stereo not given) | 1.6 | · | 18 | -14 | -1 | -1 | -3
Cc1cc(C)n(-c2n[nH]c(C)c2[N+](=O)[O-])n1 | 1.8 | 4283 | 3 | -4 | 13 | -1 | -4
COc1ccccc1C(=O)NCCC(=O)Nc1nc2ccccc2[nH]1 | -0.3 | 4191 | 5 | -17 | 6 | 0 | 1
CC(C)(C)NC(=O)COc1ccc(CNn2nnnc2N)cc1 | 5.3 | 3463 | -4 | -11 | 6 | 20 | 11
O=C(O)COc1ccc(Br)cc1C(c1c(C(=O)O)[nH]c2ccccc12)c1c(C(=O)O)[nH]c2ccccc12 | 13 | 3836 | -4 | -24 | -4 | 0 | 12
O=C(OCc1nnc(-c2ccccc2)o1)c1cccnc1Cl | 3.6 | 4462 | -8 | -41 | 2 | 6 | -6
Nc1ccccc1C(=O)NCc1ccc(F)cc1 | 3.8 | 3899 | -4 | -36 | -69 | 0 | 11
CSc1nc2c(c(=O)n1C)SC(C)C2 (stereo not given) | 5.3 | 6005 | -12 | -12 | 1 | 4 | -5
O=C(NN=Cc1cccc(O)c1)c1ccc(COc2cccc3cccnc23)cc1 | -0.7 | · | · | · | -2 | -5 | 0
CC1(C)C(=O)OC(C(=O)c2ccc(Cl)cc2)C(C)(C)C1=O (stereo not given) | -0.7 | 2438 | 4 | -17 | 5 | 8 | 3
O=C(CSc1nc(=O)n(CCCN2CCOCC2)c2c1CCCC2)Nc1cccc(Cl)c1 | 3.5 | 4662 | 14 | -7 | 14 | 5 | -2
COc1ccc(S(=O)(=O)/N=C2/NC(=O)/C(=C\c3ccco3)S2)cc1 | 8.4 | 2166 | -1 | -4 | -2 | 2 | 5
CCOC(=O)C(=O)/C(=C\N(C)C)c1onc(-c2ccccc2)c1C(=O)OC | -3.4 | 2317 | -6 | -8 | -5 | · | ·
CSC(=S)NN=Cc1ccc(N(C)C)cc1 | 6.0 | · | · | · | 7 | 9 | 10
Cc1ccc(C=NNC(=O)C2CCN(Cc3ccc(F)cc3Cl)CC2)o1 | -3.3 | · | · | · | 2 | 7 | 10
COCCSc1nnc(NC(=O)CS(=O)(=O)c2ccc(C)cc2)s1 | 3.4 | 6204 | -1 | -7 | 9 | 3 | 6

Further structures follow:
SMILES | Sa RN4220 lethal | Bead autofluor | BJeLR lethal | PrP 5UTR inh | ugtP null kill | Mtb hypoxia rep | Mtb hypoxia rep growth
CCOC(=O)N1CCN(Cc2cccs2)CC1 | 4.6 | 10008 | · | -32 | -3 | 10 | 17
CC(C)c1ccc(NC(=O)Cn2nnc(C(=O)NCc3ccc4c(c3)OCO4)c2N)cc1 | 2.1 | 4424 | 17 | 9 | 9 | 1 | 3
CN(C)CCCN(C(=O)CCc1ccccc1)c1nc2ccc(F)cc2s1 | -1.5 | 2785 | 13 | -29 | -2 | 7 | -6
CCc1nn(-c2ccccc2)c(=S)c2ccccc12 | 5.1 | 2314 | 1 | -27 | 16 | 11 | 8
CCCOc1ccc(/C=N/n2nnnc2N)cc1OC | · | 4139 | 0 | -14 | · | · | ·
O=C(c1ccc([N+](=O)[O-])cc1)N1CCSC1c1ccc(Cl)cc1 (stereo not given) | 1.7 | 2109 | -2 | -13 | -5 | 7 | 4
Cc1ccc(OCCNC(=O)CNC(=O)c2ccccc2Cl)cc1 | 3.9 | 3845 | · | -9 | 5 | 12 | 6
Cc1cccc(CC(C)NC(=O)CCc2nnc(CCCCc3ccccc3)o2)n1 (stereo not given) | -2.2 | 2178 | -10 | -10 | 5 | 1 | 7
COc1ccc(CC(=O)NNc2ncnc3c2cnn3Cc2ccccc2)cc1OC | 3.3 | 4292 | 6 | -22 | 13 | 13 | -11
Cc1ccc(C)c(Nc2cc(C)nc(-c3ccccc3O)n2)c1 | -8.6 | 3693 | 13 | -37 | 5 | -7 | 4
CCOc1ccc(NC(=O)Cn2ncc3ccccc32)cc1 | 0.2 | 3564 | 6 | -31 | 6 | -6 | 10
CCOC(=O)NC(=O)CSc1nc(C)cc(C)c1C#N | 1.1 | 3208 | 1 | -54 | 0 | -7 | 1
Fc1ccccc1NC(=S)Nn1cnnc1 | -0.5 | 4364 | -5 | 17 | 5 | 8 | -4
O=[N+]([O-])c1cccc(-c2csc(NN=Cc3cccc(O)c3)n2)c1 | 85 | · | · | · | 94* | 0 | -8

Ordered by molecular weight (rising): some entries from above
SMILES | Sa RN4220 lethal | Bead autofluor | BJeLR lethal | PrP 5UTR inh | ugtP null kill | Mtb hypoxia rep | Mtb hypoxia rep growth
Fc1ccccc1NC(=S)Nn1cnnc1 | -0.5 | 4364 | -5 | 17 | 5 | 8 | -4
CCOC(=O)N1CCN(Cc2cccs2)CC1 | 4.6 | 10008 | · | -32 | -3 | 10 | 17
CCc1nn(-c2ccccc2)c(=S)c2ccccc12 | 5.1 | 2314 | 1 | -27 | 16 | 11 | 8
CCCOc1ccc(/C=N/n2nnnc2N)cc1OC | · | 4139 | 0 | -14 | · | · | ·
CCOC(=O)NC(=O)CSc1nc(C)cc(C)c1C#N | 1.1 | 3208 | 1 | -54 | 0 | -7 | 1
CCOc1ccc(NC(=O)Cn2ncc3ccccc32)cc1 | 0.2 | 3564 | 6 | -31 | 6 | -6 | 10
Cc1ccc(C)c(Nc2cc(C)nc(-c3ccccc3O)n2)c1 | -8.6 | 3693 | 13 | -37 | 5 | -7 | 4
CN(C)CCCN(C(=O)CCc1ccccc1)c1nc2ccc(F)cc2s1 | -1.5 | 2785 | 13 | -29 | -2 | 7 | -6
COCCSc1nnc(NC(=O)CS(=O)(=O)c2ccc(C)cc2)s1 | 3.4 | 6204 | -1 | -7 | 9 | 3 | 6
Cc1cccc(CC(C)NC(=O)CCc2nnc(CCCCc3ccccc3)o2)n1 (stereo not given) | -2.2 | 2178 | -10 | -10 | 5 | 1 | 7
COc1ccc(CC(=O)NNc2ncnc3c2cnn3Cc2ccccc2)cc1OC | 3.3 | 4292 | 6 | -22 | 13 | 13 | -11
CC(C)c1ccc(NC(=O)Cn2nnc(C(=O)NCc3ccc4c(c3)OCO4)c2N)cc1 | 2.1 | 4424 | 17 | 9 | 9 | 1 | 3
